Source: PubChem BioAssay (National Center for Advancing Translational Sciences (NCATS))
PINK1 expr mod – PINK1 expression modulation; PINK1 immunofluorescence, high-content cytometry, 24 h; Potency, µM (titrated, usually from 76.6 µM), for inactives: at the top dose activation (PINK1 increase), usual class: activators; 410,000 tested, 0.2% active; AID 624263; active = well fitted activation curve with a large enough effect; inconclusive = small, poorly fitted or top-dose-only effect; inactive = flat fitted curve, though single readings scatter; cell line not stated here;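 further: % of control where 0% means no effect; nearly all actives have a fitted effect of over 65% in size; a mitochondrial uncoupler was the plate control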
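Compound titrations (5 concentrations, 24 h) on a stable cell line; DMSO and CCCP controls. Endpoint: fixed-cell PINK1 immunofluorescence with mitochondrial, cell and nuclear markers, scanned by microplate cytometer.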
Starred values were filed as active, the others as inactive; u = inconclusive. Potency means the concentration at half of the fitted maximal effect. Not all compounds are listed; rates above refer to the full screens.

SMILES | PINK1 expr mod
CCOc1ccccc1NC(=O)NC(CC)c1c(-n2cccc2)sc2c1CCN(C)C2 (stereo unspecified) | -0.1%
CS(=O)(=O)Nc1ccccc1C(=O)OCc1cc(=O)n2nc(C3CCCCC3)sc2n1 | -1.0%
O=C(NCCOCCn1c(=O)oc2ccccc21)Nc1ccc(F)cc1 | 0.3%
Oc1cccc(C(Nc2ccccn2)c2ccc3cccnc3c2O)c1Cl (stereo unspecified) | 0.0%
COc1ccc(-c2nc3c4cnn(-c5ccccc5F)c4ncn3n2)cc1 | 0.4%
Cc1ccccc1CNC(=O)Cn1ncn2nc(-c3cccs3)cc2c1=O | -0.2%
COc1ccccc1NC(=O)c1sc(-c2ccc(Cl)cc2)cc1N | 12%
CCCCN(C)S(=O)(=O)c1cc(-c2nnc3c4ccccc4c(C)nn23)ccc1C | 1.6%
CCOc1ccc(CNC(=O)C2CCCN(S(=O)(=O)N(C)c3ccc(F)cc3)C2)cc1OC (stereo unspecified) | 0.9%
COc1ccc(F)cc1S(=O)(=O)Nc1cccc(-c2ccc(N3CCC(C)CC3)nn2)c1 | -0.4%
CCC(Cn1nnc2ccccc2c1=O)NC(=O)Nc1cc(C)cc(C)c1 (stereo unspecified) | 0.3%
COc1ccc(-c2nc(C(N)=O)c3c(n2)n(-c2ccccc2OC)c(=O)n3C)c(OC)c1 | 5.3%
Cc1ccc(-c2nnc(Nc3ccc(S(N)(=O)=O)cc3)c3ccccc23)cc1S(=O)(=O)N1CCCCC1 | 9.7%
O=S(=O)(NCCS(=O)(=O)N1CCN(c2ccccc2)CC1)c1ccc(Cl)cc1 | 2.9%
CCN1CCN(C(=O)Cn2ncc3c4ccccc4n(Cc4c(C)cc(C)cc4C)c3c2=O)CC1 | 1.6%
COc1ccc(C2(CNC(=O)C(=O)Nc3cccc(C(F)(F)F)c3)CCCC2)cc1OC | 1.4%
CCc1ccc(N=C2NC(=O)CC(C(=O)Nc3ccc(OC)cc3)S2)cc1 (stereo unspecified) | 10%
Cc1ccc(CN2C(=O)C(O)(c3c(C)[nH]c4ccccc34)c3ccccc32)cc1 (stereo unspecified) | 7.0%
COc1ccc(C)cc1NC(=O)Cn1c(=O)ccc2cc(S(=O)(=O)N3CCC(C)CC3)ccc21 | 4.9%
Cc1ccc(C(=O)Nc2ccc3c(c2)n(C)c(=O)c(=O)n3C)cc1 | -0.2%
CCOc1ccc(C(=O)N2CCc3cc(OC)c(OC)cc3C2COc2ccc3c(C)cc(=O)oc3c2)cc1OCC (stereo unspecified) | 0.3%
CN(C)/[N+]([O-])=N/Oc1ccc([N+](=O)[O-])cc1[N+](=O)[O-] | -0.1%
CCCN1C(C(=O)c2ccccc2)=C(OC(=O)c2ccc(F)cc2)c2ccccc2S1(=O)=O | 14%
COC(=O)c1scc(-c2ccc(C)cc2)c1S(=O)(=O)Nc1ccc(F)cc1F | 0.6%
Nc1c(-c2nc(-c3cccs3)no2)nnn1-c1ccccc1Cl | 3.0%
COC(=O)c1ccccc1NC(=O)CCn1c(=O)c2cccn2c2cccnc21 | 2.6%
Cc1ccc(Cl)cc1NC(=O)Nc1cn(CC(C)C)c(=O)c2ccccc12 | 2.8%
Cc1cccc(C)c1NC(=O)Cn1cc(C(=O)C2CC2)c2ccccc21 | -0.5%
CC(C)c1nc2n(n1)C1(CCCCC1)[C@@H]1CCCC[C@@H]1N2 | -0.1%
COc1ccc(NC(=O)CSc2cc(-c3ccccc3)nc(C)n2)cc1 | -0.1%
CC(C)(C)c1ccc(S(=O)(=O)N2CCN(C(=O)c3cc(-c4ccc(Br)cc4)n[nH]3)CC2)cc1 | -0.2%
CCc1ccccc1NC(=O)Cn1c(SCc2ccc(F)cc2)nc2ccncc21 | 1.4%
COCCNC(=O)c1ccc2c(c1)N(Cc1cc(C)ccc1C)C(=O)c1ccccc1S2=O (stereo unspecified) | 1.7%
O=C(NC1CC(=O)N(c2ccc(Cl)cc2)C1)C1CCCC1 (stereo unspecified) | 0.4%
COc1ccc(-c2nc(CN3CCC(C(=O)NCc4ccc(C)cc4)CC3)c(C)o2)cc1OC | -0.2%
Cc1nn(-c2ccc(N3CCCCC3)nn2)c(C)c1CCC(=O)NCc1ccc(F)cc1 | 1.9%
Cc1ccc(Nc2nc3ccccc3c3nnc(C)n23)cc1Cl | -1.6%
Fc1ccccc1N1CCN(c2ncnc3onc(-c4cccc(Cl)c4)c23)CC1 | 1.2%
CCCCCn1c(CCNC(=O)c2cccc(C)c2)nc2ccccc21 | 0.5%
Cc1cc2c(cc1S(=O)(=O)N1CCC(C(N)=O)CC1)OCC(=O)N2 | -0.4%
Cc1ccc(NC(=O)c2ccc(N(Cc3ccccc3)S(C)(=O)=O)cc2)cc1 | 1.8%
OC1CCN(Cc2ccc3c(c2)CN(C/C=C/c2ccco2)CCO3)CC1 | 1.1%
CN(C)c1ccc(/C=C2\NC(=O)NC2=O)cc1 | -0.8%
CC(C)C(NS(=O)(=O)c1ccc2c(c1)oc(=O)n2C)C(=O)N1CCN(c2cccc(Cl)c2)CC1 (stereo unspecified) | 8.3%
Cc1ccc(C(=O)N(Cc2cc3cc4c(cc3nc2N2CCOCC2)CCC4)CC2CCCO2)cc1 (stereo unspecified) | 1.6%
CCCCN(CCCNC(=O)c1cc(Nc2ccc(OC)cc2OC)nc2ccccc12)Cc1ccccc1 | 7.6%
Nc1nc(N)c(S(=O)(=O)c2ccccc2)c(Nc2ccc(F)cc2)n1 | 2.9%
COc1ccc(Cn2ccc3nc(C)c(C(=O)N4CCN(c5ccccc5)CC4)cc3c2=O)cc1 | 1.3%
COc1ccc(C(=O)c2cn(Cc3cccc(C)c3)c3cc4c(cc3c2=O)OCCO4)cc1OC | -1.5%
CCN(CC)/[N+]([O-])=N/OCOC(=O)Cc1c(C)n(C(=O)c2ccc(Cl)cc2)c2ccc(OC)cc12 | -1.4%
More results follow:
SMILES | PINK1 expr mod
Cc1ccc(C)c(Cn2c(=O)n(CCC(=O)NCc3ccc4c(c3)OCO4)c(=O)c3sccc32)c1 | 0.5%
O=C(c1ccc2c(c1)N(Cc1ccccc1)C(=O)c1ccccc1S2(=O)=O)N1CCc2ccccc21 | 1.4%
Cc1cc(F)ccc1-n1nnc(C(N)=O)c1C | -0.5%
Cc1ccc(CSC2=Nc3ccccc3C3=NC(CC(=O)NCc4ccc5c(c4)OCO5)C(=O)N23)cc1 (stereo unspecified) | 1.6%
CC(NC(=O)C1CCN(C(=O)N2CCOc3ccc(Cl)cc32)CC1)c1ccccc1 (stereo unspecified) | -1.2%
O=C(Nc1ccc(N2CCN(c3ccc(F)cc3)CC2)c(C(=O)O)c1)c1cccs1 | 1.9%
Cc1cc(C)c(OCC(=O)N(Cc2ccc(N(C)C)cc2)Cc2ccco2)c(C)c1 | 5.7%
CCOC(=O)c1ccc(NC(=O)CSc2ccc(-c3sc(C)nc3C)nn2)cc1 | -0.9%
CCOc1ccccc1CNC(=O)c1ccc2nc(CCc3ccccc3)oc2c1 | 6.1%
COc1cc(O)ccc1-c1nc2cc(C)ccn2c1Nc1ccccc1C | 2.0%
Nc1nc2[nH]cc(CCc3ccc(C(=O)N[C@@H](CCC(=O)O)C(=O)O)cc3)c2c(=O)[nH]1 | -1.1%
Cc1ccc(N2CCN(C(=O)c3ccc4c(Cl)c5c(nc4c3)CCCC5)CC2)c(C)c1 | 11%
O=C(CSc1nc2ccccc2nc1Cc1ccccc1)N1CCCCC1 | u
Cc1ccc2nc(Cl)c3cc(C(=O)N4CCCCC4C)sc3c2c1 (stereo unspecified) | -0.7%
Cc1ccc(C(C)C)c(OCCCn2c(=O)oc3ccccc32)c1 | 9.6%
COc1cc(NC(=O)CSc2nc(-c3cccs3)cc(C(F)(F)F)n2)cc(OC)c1OC | 1.7%
Cc1nc2c(C(=O)NCc3ccccc3Cl)cnn2c(C)c1Cc1c(F)cccc1Cl | -1.0%
Cc1csc2nc(COC(=O)COc3ccccc3F)cc(=O)n12 | -0.3%
COc1ccccc1CNC(=O)Cc1c(C)c2c(cc(C)c3c(C)c(C)oc32)oc1=O | 0.8%
Cc1ccc(SCC(=O)Nc2ccc3oc(-c4ccc(F)cc4)nc3c2)cc1 | 10%

Molecules above that contain a furan ring, fused or not:
SMILES | PINK1 expr mod
OC1CCN(Cc2ccc3c(c2)CN(C/C=C/c2ccco2)CCO3)CC1 | 1.1%
Cc1cc(C)c(OCC(=O)N(Cc2ccc(N(C)C)cc2)Cc2ccco2)c(C)c1 | 5.7%
COc1ccccc1CNC(=O)Cc1c(C)c2c(cc(C)c3c(C)c(C)oc32)oc1=O | 0.8%

The listing continues:
SMILES | PINK1 expr mod
Cc1nc([N+](=O)[O-])cn1CC(=O)c1ccc2c(c1)OCCO2 | -0.7%
Cc1ccccc1Nc1nnc(-c2ccc(C)c(S(=O)(=O)N3CCCCC3)c2)c2ccccc12 | -1.1%
CCOC(=O)c1ccc(OC(=O)c2cn(-c3cccc(OC)c3)c(=O)c3ccccc23)cc1 | -0.2%
COc1ccc(CNC(=O)CSc2nc3ccsc3c(=O)n2Cc2ccccc2Cl)cc1 | 2.5%
COc1cccc(CN2CCCN(CC(=O)Nc3ccc4c(c3)OCCO4)S2(=O)=O)c1 | 1.5%
COc1cccc(CNC(=O)CN2C(=O)CSc3c2c(C)nn3-c2ccccc2)c1 | 0.4%
CCCCNC(=O)c1cnc2sc(N3CCCCCC3)nn2c1=O | 2.5%
CCOC(=O)c1cc(C)n(CC2CCC(C(=O)Nc3ccc(OCC)cc3)CC2)c1C (stereo unspecified) | -0.3%
Cc1nn2c(=O)cc(COC(=O)Cc3ccccc3)nc2s1 | 0.8%
CCSc1nn(CC(=O)Nc2cccc(CC)c2)c(N)c1S(=O)(=O)c1ccccc1 | u

Some of the entries so far, field by field.
Cc1ccc(CN2C(=O)C(O)(c3c(C)[nH]c4ccccc34)c3ccccc32)cc1 (stereo unspecified)
  PINK1 expr mod: 7.0%

COc1ccc(C)cc1NC(=O)Cn1c(=O)ccc2cc(S(=O)(=O)N3CCC(C)CC3)ccc21
  PINK1 expr mod: 4.9%

The list continues:
SMILES | PINK1 expr mod
O=C(c1ccccc1F)N(Cc1cc2cc3c(cc2nc1N1CCOCC1)CCC3)CC1CCCO1 (stereo unspecified) | -0.7%
CCN(c1ccccc1)c1nnc(NC(=O)Nc2cccc(Cl)c2C)s1 | -1.3%
CC(C)(C)NC(=O)c1cnn(-c2ccccc2)c1C1CCN(C(=O)OC(C)(C)C)CC1 | 0.4%
NS(=O)(=O)c1ccc(NC(=O)CN2CCN(c3ccc(F)cc3)CC2)cc1 | -0.8%
COc1cccc(-c2nc3c(c(SCC(=O)Nc4cc(C)ccc4C)n2)Cc2c(CO)cnc(C)c2O3)c1 | 1.6%
Cc1oc2ncn(CC(C)C)c(=O)c2c1C(=O)NCc1cccc(Cl)c1 | 1.3%
Cc1ccc2c(=O)c(C(=O)c3cccc(Cl)c3)cn(CC(=O)Nc3ccc4c(c3)OCCO4)c2n1 | 3.6%
CCOc1ccc(NC(=O)CC2C(=O)N(c3ccc(C)cc3)C(=O)N2C2CCCCC2)cc1 (stereo unspecified) | 0.2%
CC(=O)Oc1ccc(-c2nc(-c3ccccc3)no2)cc1 | 0.5%
Cc1cccn2c(=O)c3cc(C(=O)NCc4cccnc4)c(=N)n(CCCO)c3nc12 | -1.1%

Random excerpt: 5 compounds from above
SMILES | PINK1 expr mod
O=C(c1ccccc1F)N(Cc1cc2cc3c(cc2nc1N1CCOCC1)CCC3)CC1CCCO1 (stereo unspecified) | -0.7%
Cc1oc2ncn(CC(C)C)c(=O)c2c1C(=O)NCc1cccc(Cl)c1 | 1.3%
NS(=O)(=O)c1ccc(NC(=O)CN2CCN(c3ccc(F)cc3)CC2)cc1 | -0.8%
COc1cccc(-c2nc3c(c(SCC(=O)Nc4cc(C)ccc4C)n2)Cc2c(CO)cnc(C)c2O3)c1 | 1.6%
CCOc1ccc(NC(=O)CC2C(=O)N(c3ccc(C)cc3)C(=O)N2C2CCCCC2)cc1 (stereo unspecified) | 0.2%

Next compounds
SMILES | PINK1 expr mod
CCCCNC(=O)c1cnc2sc(N3CCCCC3)nn2c1=O | 3.6%
COc1ccc(Cn2ccc3nc(C)c(C(=O)N4CCN(c5cccc(OC)c5)CC4)cc3c2=O)cc1 | 1.9%
COc1ccc(OC)c(NC(=O)c2cc3cccc(OC)c3oc2=O)c1 | 1.5%
COc1ccc(-c2oc3ncn4nc(-c5ccccc5Br)nc4c3c2-c2ccc(OC)cc2)cc1 | 1.0%
O=C(NCc1cccc(Cl)c1)c1oc(=O)c2ccccc2c1-c1ccccc1 | 0.4%
COc1ccccc1NC(=O)c1c(NCc2ccc(C)o2)sc2c1CCCCC2 | 1.6%
CCN(CC)C(=O)CSc1nc2ccccc2c(=O)n1Cc1ccco1 | 3.0%
COc1cccc(C(=O)Nc2nc(-c3nnn(-c4ccccc4C(F)(F)F)c3C)ns2)c1 | 1.2%
COc1ccccc1OCCn1c(NC(=O)c2ccc(Cl)cc2)nc2ccccc21 | -1.4%
Cc1cccc(-n2ncc3c(NCCOCCO)ncnc32)c1 | 0.4%
CCOC(=O)c1ccc(Nc2c(-c3ccc(N(C)C)cc3)nc3nc[nH]n23)cc1 | 0.2%
Cc1nnc(NCc2ccccc2)c2c1nnn2Cc1ccccc1Cl | -1.5%
Cc1cccc(OCC(=O)Nc2ccccc2C(=O)OCc2cc(=O)n3ccsc3n2)c1 | -1.4%
COc1cc2c(c(OC)c1)C(c1cc(OC)c(OC)c(OC)c1)CC(=O)N2 (stereo unspecified) | -1.2%
Cc1cc(C)c(NC(=O)Cn2c(=O)n(CCC(=O)NCc3ccccc3Cl)c(=O)c3sccc32)c(C)c1 | 1.0%
Cc1cc(C)cc(N2C(=O)CCSC23C(=O)N(Cc2ccccc2)c2ccccc23)c1 (stereo unspecified) | -0.8%
COc1ccc(NC(=O)c2oc3ccccc3c2NC(=O)c2cc3ccccc3o2)cc1 | 2.1%
O=C(NCc1ccccc1F)c1ccc(CN2CC(=O)N3CCCCC3C2=O)cc1 (stereo unspecified) | -0.2%
COc1ccc(-c2c3c(=O)n(C)c(=O)n(C)c3c3c(C)nc4ccccc4n23)cc1 | 1.0%
COc1ccccc1/C=C/c1ccnc2ccccc12 | 1.0%
